Assay outcomes deposited in PubChem by several laboratories.
A1 inh = inhibitors of the anti-apoptotic protein A1, read as caspase activation. MEF A1-2A-BIM cells, Caspase-Glo 3/7 luminescence, 3 h; percent of clofoctol response, vehicle zero. caspase activation, % (test concentration not listed). 330,000 tested, 0.066% active;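 active = over half of replicate activation scores above 10%, or exactly half above 10 with the replicate mean above 10; inconclusive = replicate mean below 10 yet half the replicates above 10; inactive = over half of replicates below 10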;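 note: wells of about 30 µL received 50 nL stock; many hits fall short of the cut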
T cruzi inh = T. cruzi replication inhibition. T. cruzi beta-gal in NIH3T3, luminescence, 90 h. inhibition, % (no concentration beside the values). 300,000 tested, 1.4% active. AID 1885;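 active = mean inhibition across valid replicates above about 55%, limit read from the data; inconclusive = mean below that limit but half or more replicates reach it; inactive = mean below it, under half of replicates reach it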;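 note: signal also drops with host cell toxicity which is not excluded here; 0% = plate median of DMSO wells and 100% = zero luminescence signal; higher percent means less beta-gal luminescence so fewer parasites; stock transfer was 50 nL into about 50 µL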
Calb FLC = C. albicans growth modulation with fluconazole. C. albicans CaCi-2 (fluconazole-resistant clinical isolate) + fluconazole, Alamar Blue growth, 48 h. growth inhibition, % (test concentration not listed). 300,000 tested, 0.57% active. AID 1979;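 active = most replicates above 75%; inconclusive = exactly half above 75%; inactive = most below 75%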;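 note: all wells also contain fluconazole at 8 µg/ml as a sub-toxic cotreatment; 0% = median of DMSO wells and 100% = median of geldanamycin control wells; wells of about 8 µL received 7.5 nL stock; the first replicate is given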
ALR inh = human ALR oxidase inhibition via reduced H2O2; inhibition, % (test concentration not listed); P55789; purified ALR, DTT oxidation, H2O2 HRP-luminol luminescence; 290,000 tested, 3.8% active;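 active = mean and each replicate at 75% or more; inconclusive = only one of the two met; inactive = neither met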;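 note: stock transfer was 7.5 nL into about 7.5 µL; 0% = neutral wells and 100% = wells with inactivated enzyme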
Target sequence (P55789 whole entry, looked up): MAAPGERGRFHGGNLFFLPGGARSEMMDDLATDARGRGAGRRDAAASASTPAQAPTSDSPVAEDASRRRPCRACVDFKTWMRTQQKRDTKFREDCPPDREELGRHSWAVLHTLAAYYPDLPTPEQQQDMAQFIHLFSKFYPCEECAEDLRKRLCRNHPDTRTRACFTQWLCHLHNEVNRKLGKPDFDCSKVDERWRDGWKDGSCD
LANA-H2B inh = blocks KSHV LANA binding to histone H2A/H2B; cell-free LANA-H2A/H2B peptide, fluorescence polarization; inhibition, % (no concentration beside the values); 320,000 tested, 0.6% active; AID 2629; in the data active = inhibition mostly above about 10%, no sharp cut-off; inactive = mostly below about 6.7%;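 note: stock transfer was 7.5 nL into about 10 µL; 0% = median of vehicle wells and 100% = median of positive control wells; one replicate is shown; the record names a cut of 25% in any replicate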
rRNA inh HTS = selective bacterial rRNA inhibition in E. coli | E. coli WT GFP vs humanized-ribosome RFP mutants, fluorescence, 24 h; hits give low values; DMSO median 0, no signal -100 | GFP signal change (wild-type ribosome), % (concentration not given with the values) | 350,000 tested, 1.6% active;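 active = significant combined selectivity score with lowered wild-type GFP, culture density cut under 30%, mutant RFP and density less affected; inactive = any of these conditions unmet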; note: one replicate is shown; some compounds called inactive have numbers as strong as hits
Beta cell apopt = blocks beta cell apoptosis; protection from apoptosis, % (test concentration not listed); INS-1E cytokine-induced death, ATP luminescence, 48 h; percent of positive-control rescue, neutral wells zero; AID 435005; 300,000 tested, 0.8% active;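 active = all replicates at 75% or more, or half of them and the mean; inconclusive = half reach 75% but not the mean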;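 note: 0% = cytokine-treated negative control wells and 100% = positive control rescue; higher means more ATP so stronger rescue from cytokine killing; wells of about 40 µL received 100 nL stock; the first replicate is given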
B2AR ag = activates human beta-2 adrenergic receptor causing internalization. P07550. Am2.2-beta2AR cells, FAP receptor internalization, flow cytometry; reference of the scale not given here. response, % (no concentration beside the values). 340,000 tested, 0.43% active. AID 504454;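 active = response above a set limit, near 3 SD of response in nonfluorescent compounds, cut at about 42% in these data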;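 note: stock transfer was 100 nL into about 11 µL; a reference agonist was the positive control; negative values mostly stem from fluorescent compounds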
Target sequence (P07550 whole entry, looked up): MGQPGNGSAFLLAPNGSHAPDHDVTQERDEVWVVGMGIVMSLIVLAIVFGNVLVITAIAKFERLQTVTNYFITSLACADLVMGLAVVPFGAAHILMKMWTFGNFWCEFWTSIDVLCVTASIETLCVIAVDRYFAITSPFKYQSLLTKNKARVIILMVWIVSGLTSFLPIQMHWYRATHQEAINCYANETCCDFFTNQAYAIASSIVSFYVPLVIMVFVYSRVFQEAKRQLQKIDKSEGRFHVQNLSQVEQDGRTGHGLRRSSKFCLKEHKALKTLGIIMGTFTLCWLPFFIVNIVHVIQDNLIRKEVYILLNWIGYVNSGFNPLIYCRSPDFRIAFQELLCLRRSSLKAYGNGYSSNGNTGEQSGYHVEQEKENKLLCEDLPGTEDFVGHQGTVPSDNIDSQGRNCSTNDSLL
rRNA inh HTS OD600 = second read-out of rRNA inh HTS, no call of its own (marks repeat the call); OD600 change, %; measured here: OD600 growth;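 optical density of the mix in the first replicate; 0 = DMSO median and -100 = no signal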
rRNA inh HTS RFP = recorded beside rRNA inh HTS, whose call it bears; RFP signal change, %; measured here: RFP humanized mutant strains;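 first replicate; 0 = DMSO median and -100 = no signal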
Starred values were filed as active, the others as inactive; ? = inconclusive; . = not tested or not shown.

Values run as follows: Calb FLC	A1 inh	ALR inh	LANA-H2B inh	rRNA inh HTS RFP	Beta cell apopt	T cruzi inh	rRNA inh HTS	rRNA inh HTS OD600	B2AR ag
CC1(c2ccccc2Cl)NC(=O)N(CC(=O)c2ccc3c(c2)OCO3)C1=O (centres undefined)
 : 5	-0.1	0	-2.1	-3.0	-2	4	0	-3	-6
COc1ccc(CCCc2nnc(SCC(=O)Nc3ncc(C)s3)o2)cc1
 : 3	0.3	1	-5.2	.	-2	17	.	.	-4
C#CCOCCOCCOCCNc1nc(N2CCN(C(=O)Cn3cc(CCCCN)nn3)CC2)nc(N2CCN(C(=O)[C@H](CCCCN)n3cc(CCC(=O)O)nn3)CC2)n1
 : .	0.5	.	2.4	1.6	-3	.	19	-1	-1
Cc1cc(Nc2ccccc2O)c2ccccc2n1
 : ?	0.8	71	2.9	0.1	11	-17	12	7	-6
O=C(c1ccccc1)N(C1=NCCCCS1)c1ccccc1
 : 4	0.3	7	-3.7	4.3	-10	1	0	2	-3
Cc1cc(-c2nnc(SCC(=O)Nc3ccccc3C(F)(F)F)o2)c(C)n1-c1ccccc1
 : 1	0.2	.	1.9	.	-2	13	.	.	7
CC(C)[C@H](NC(=O)N1CCn2c1nc1ccccc12)C(=O)N[C@H](C(=O)O)c1ccccc1
 : 0	-0.5	.	-0.4	.	1	7	.	.	-2
CCC1(C)Cc2ccccc2-c2c1c(=O)n(Cc1ccccc1)c1nnnn21 (centres undefined)
 : -4	0.0	-5	-5.2	.	15	1	.	.	-3
Nc1ccc(-c2c3ccc(=O)cc-3oc3cc(O)ccc23)c(C(=O)O)c1
 : .	1.1	22	65*	.	-2	.	.	.	-23
Cc1cccc(NC(=O)COC(=O)c2cccc3c2C(=O)c2ccccc2C3=O)c1C
 : 11	1.4	.	.	.	5	1	.	.	7
O=C(COC(=O)C12CC3CC(CC(C3)C1)C2)Nc1nccs1
 : -9	1.5	-6	1.0	-3.4	-4	-10	9	-3	4
O=C(COC(=O)Cn1cnc2ccccc21)NCCc1ccc(Cl)cc1
 : -1	-0.4	.	1.9	.	-4	-12	.	.	4
Cc1ccccc1NC(=O)Cn1c(NCC(C)O)nc2ccccc21 (centres undefined)
 : -3	-0.5	-5	-2.3	-3.9	4	2	10	13	-6
COc1ccc(C2=NNC(=O)CC2)cc1
 : 11	0.4	-1	-2.8	1.6	-7	-4	21	13	0
COc1ccc(-n2c(C)c3c(OC)cccc(=O)c3c2C)cc1
 : 6	-0.8	-4	2.7	.	-1	22	.	.	8
O=C(c1ccc(COc2ccc(Cl)cc2)cc1)N1CCCCC1
 : -8	-2.9	-28	-0.8	-16	-5	26	-50	-74	8
CC1CCCCN1C(=O)COC(=O)c1cc([N+](=O)[O-])ccc1N (centres undefined)
 : -1	0.5	-1	0.0	3.0	5	2	14	6	-4
CCOc1ccc(NS(=O)(=O)c2ccc3c(c2)N(C(C)=O)CCO3)cc1
 : 1	-0.6	-1	-4.7	-2.0	-1	-4	-2	-8	-2
COc1cccc(CNS(=O)(=O)c2ccc3c(c2)CC(C)N3C(C)=O)c1 (centres undefined)
 : 8	-1.2	7	-2.0	0.4	2	-10	-1	1	2
O=C(Nc1ccc2c(c1)CCCN2C(=O)c1cccs1)c1c(F)cccc1F
 : 7	-0.6	2	0.6	1.5	5	10	4	-15	1

The list continues.
Values run as follows: Calb FLC	A1 inh	ALR inh	LANA-H2B inh	rRNA inh HTS RFP	Beta cell apopt	T cruzi inh	rRNA inh HTS	rRNA inh HTS OD600	B2AR ag
Cc1cc(=O)oc2cc(OCc3ccc(C(=O)OCC(=O)Nc4ccccc4OC(F)F)cc3)ccc12
 : 0	-1.7	-8	0.5	-1.0	-5	6	11	3	2
C=CCOC(=O)C1=C(C)OC(N)=C(C#N)C1c1ccc2c(c1)OCO2 (centres undefined)
 : 15	0.7	4	1.3	.	-1	4	.	.	-1
O=Cc1c(-[n+]2ccccc2)nc([O-])n1-c1ccccc1
 : 2	-0.4	-7	2.9	.	-2	11	.	.	0
COCCn1nnnc1C(c1ccccc1)N1CCN(C)CC1 (centres undefined)
 : 9	-0.5	-11	-0.3	.	1	10	.	.	-2
Cc1ccc(CNC(=O)[C@H](C)[C@H]2C[C@]2(C)[C@H](NC(=O)OCc2ccccc2)c2ccccc2)o1
 : -3	-0.5	3	-2.6	.	-5	-3	.	.	-7
O=C(COC(=O)[C@H](Cc1ccccc1)NC(=O)c1ccco1)Nc1ccccc1OC(F)F
 : .	1.2	37	-0.2	0.8	-7	.	-1	2	7
c1ccc2c(N3CCOCC3)nc(N3CCOCC3)nc2c1
 : 0	0.6	-4	0.1	.	-5	-20	.	.	0
COc1ccc2cc(C3c4cc(OC)c(OC)cc4CCN3C(=O)c3ccco3)c(=O)[nH]c2c1 (centres undefined)
 : -5	-0.3	-2	7.3	-1.6	6	17	2	-1	1
CC1(C)Cc2c(cnn2-c2ccccc2)-c2c1c1ccccc1n2CC(O)CCl (centres undefined)
 : 23	0.5	-14	-4.6	.	-3	15	.	.	8
O=C1c2ccccc2C(=O)N1CCSc1n[nH]c(=S)s1
 : 8	-1.5	.	-1.1	.	.	-4	.	.	-2
Oc1ccc(Cl)cc1CNn1cnnc1
 : 1	-0.5	60	-5.4	-4.7	-7	-6	8	12	-3
CCN(CC)S(=O)(=O)c1ccc(C(=O)Nc2ncn(Cc3ccccc3)n2)cc1
 : 15	-0.5	-8	1.4	-0.9	-4	10	4	9	-13
CCc1ccc(C(c2ccc(CC)cc2)C(Cl)Cl)cc1
 : .	-0.5	0	24*	-3.3	3	.	-8	-9	-3
O=c1c2c3c(sc2n2cnnc2n1Cc1ccccc1)CN(Cc1ccccc1)CC3
 : 30	-0.1	-7	0.5	.	-5	10	.	.	11
CCOc1ccccc1NC(=O)C(=O)N/N=C/c1ccc([N+](=O)[O-])cc1
 : 14	0.1	-3	3.0	-3.4	2	-8	6	4	3
C[C@H](NC(=O)N1CCn2c1nc1ccccc12)C(=O)NCC1CCCO1 (some centres undefined)
 : 12	-0.3	-7	-3.0	-1.4	0	11	4	6	-5
O=C(CCCSc1nnc(-c2cccs2)n1CC1CCCO1)c1ccccc1 (centres undefined)
 : -15	0.6	.	-1.6	.	4	9	.	.	-14
COc1ccccc1NC(=O)C1=C(C)NC(=O)NC1c1cccs1 (centres undefined)
 : 18	-0.1	1	4.5	0.6	-4	-2	6	1	-3
COCCCn1cc(C(=O)c2ccccc2OCC(=O)Nc2cccc(F)c2)cc(C#N)c1=O
 : 26	0.1	-3	0.2	2.7	.	11	3	8	-2
CC(=O)c1cc(-c2ccccc2)n(CC(=O)Nc2cccc(C)c2)c1C
 : 7	0.6	-8	0.2	.	-2	-4	.	.	7

Next section:
Values run as follows: Calb FLC	A1 inh	ALR inh	LANA-H2B inh	rRNA inh HTS RFP	Beta cell apopt	T cruzi inh	rRNA inh HTS	rRNA inh HTS OD600	B2AR ag
Cc1ccccc1S(=O)Cc1ccc(C(=O)NC2CC2)o1 (centres undefined)
 : 20	1.0	-12	-1.2	-2.5	-7	-7	5	10	-5
O=[N+]([O-])c1cccc(C(=Nc2ccc(Cl)cc2)NO)c1
 : 16	-0.4	85*	-5.8	.	-7	-26	.	.	-8
O=C1CN(C(=O)CSc2nncs2)c2ccccc2N1
 : 3	0.1	.	4.2	-10	-4	0	-5	-21	-1
CN(c1ccc(OCC(=O)OCC(=O)Nc2ccccc2)cc1)S(=O)(=O)c1cccs1
 : 53	1.5	4	3.7	-1.0	-2	-10	-9	2	16
CSC1=C(C#N)C2(CCCC2)C(C#N)=C(N)N1
 : 13	-0.1	0	2.1	.	-12	2	.	.	.
CCn1c(C(=O)N2CCCC(C(=O)O)C2)cc2sccc21 (centres undefined)
 : -18	0.1	2	2.0	.	-3	-6	.	.	2
CCOc1ccc2[nH]c(=O)c(CN(CC3COCCO3)C(=O)c3ccc(C)cc3)cc2c1 (centres undefined)
 : 0	1.8	2	-1.6	-5.0	3	-2	6	-1	-6
Cc1ccc(C)c(OCCC(=O)OCC(=O)NCCc2ccc(S(N)(=O)=O)cc2)c1
 : -5	0.8	2	1.5	-0.3	1	-5	4	-5	8
O=C(NCc1ccc(-c2nc3ccccc3s2)cc1)c1ccco1
 : 49	-8.7	7	-2.5	3.8*	3	-19	-20*	0.1*	-4
O=C(Nc1ccc(Sc2ccc(Br)cc2)cc1)c1ccco1
 : .	0.2	-6	1.7	.	12	-17	.	.	1
COC(=O)COc1ccc2c(c1)O/C(=C\c1cccc([N+](=O)[O-])c1)C2=O
 : 4	-1.1	0	-2.9	0.8	-7	4	3	-5	19
Cc1cccc(NC(=O)CS(=O)(=O)c2c[nH]c3ccccc23)c1C
 : 12	-0.1	-16	-3.3	.	3	1	.	.	-3
Clc1ccc(-c2nnc(-c3ccco3)o2)cc1
 : -2	-2.8	2	5.7	.	-4	-1	.	.	-6
CCn1cnc2cc(NCc3ccc(C)cc3)ccc21
 : 6	-2.2	87*	-0.9	.	2	10	.	.	-1
COc1ccc(/C=N/NC(=O)c2nn(C)cc2Br)cc1CSCc1ccco1
 : -22	-0.3	98*	-7.8	1.1	.	-5	-12	-9	36
CCCCc1nc2sc3c(c2c(=O)[nH]1)CCC3
 : 20	0.8	-7	1.9	.	-2	4	.	.	9
C=CCc1ccc(OCC(O)CN2CCCCC2)c(OC)c1 (centres undefined)
 : -2	-1.0	-2	-0.4	.	1	-14	.	.	3
COc1ccc(OC)c(N2C(=NC(=O)C3CCCCC3)SC3CS(=O)(=O)CC32)c1 (centres undefined)
 : 5	0.0	2	8.9	-1.9	-3	3	9	14	7
CN(Cc1cnn(-c2ccccc2)c1)C(=O)C1CCC(=O)N(C2CC2)C1 (centres undefined)
 : -2	0.2	-6	2.8	3.3	-14	-2	8	7	-8
CCOC(=O)C1CN(S(=O)(=O)c2ccc(F)cc2)C1
 : 1	-0.3	-8	2.8	.	.	-3	.	.	.

A portion of the library; rates above refer to the full screens.
